Screening results as filed in PubChem BioAssay.
miR-21 reporter: qHTS Assay for Modulators of miRNAs and/orActivators of miR-21; HeLa miR-21 FLuc reporter, luciferase, 48 h; Potency, µM (top dose mostly 38.3 µM), without a hit: at the top dose reporter change, positive = more light; 340,000 tested, under 10 active; active = well fitted rising curve with a large enough effect; inconclusive = small, poorly fitted or top-dose-only effect; inactive = no such curve, though single readings can be large or run the other way;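 note: % of control where 0% means no effect; miR-21 action dims this reporter so a rising signal means less miR-21 action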
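HeLa cells endogenously expressing miR-21, stably carrying CMV-driven firefly luciferase with a downstream miR-21 binding site, 2000 cells/well. Titrations up to approximately 40 uM, 48 hours; luciferase luminescence read.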
Numbers without * were called inactive; ? = inconclusive. The list is partial (hit frequency here may not be typical).

molecule | miR-21 reporter
COc1ccc(N(CC(=O)N2CCCCC2)S(=O)(=O)c2ccc(OC)c(OC)c2)cc1 | -5%
COc1cccc(Cn2c(Oc3cc(C)cc(C)c3)nc3c2c(=O)n(C)c(=O)n3C)c1 | -4%
CCn1cc(/C=C(\NC(=O)c2ccccc2Cl)C(=O)NCCCn2ccnc2)c2ccccc21 | 10%
Fc1ccc(-n2cc(-c3ccccc3)c3c(NC4CCCCC4)ncnc32)cc1 | 3%
COc1ccc(S(=O)(=O)N(CC(=O)Nc2ccc(OC)cc2OC)c2ccc(Cl)cc2)cc1 | 17%
CCn1cc(C(=O)N2CCN(c3cccc(Cl)c3)CC2)c(=O)c2cc(S(=O)(=O)N3CCC(C)CC3)ccc21 | 19%
CCOC(=O)c1cc(C)n(CC2CCC(C(=O)Nc3ccc(C)c(F)c3)CC2)c1C (stereo not given) | 14%
CCN(CCCNC(=O)CSc1cc(=O)n(CC)c2ccccc12)c1ccccc1 | 7%
COc1cc2c(cc1OC)C(COc1ccccc1OC)N(C(=O)c1ccc(S(=O)(=O)N(C)C)cc1)CC2 (stereo not given) | -2%
CCN(CC)S(=O)(=O)c1ccc2c(c1)N(CC(=O)Nc1c(C)cc(C)cc1C)C(=O)C1CCCN21 (stereo not given) | -4%
O=C(CSc1nc2c([nH]c3ccccc32)c(=O)n1-c1ccccc1)N1CCCCCC1 | -10%
O=C(O)CSc1nc2ccccc2nc1N1CCCCC1 | -12%
CCOC(=O)C(CC)N1CCN(Cc2ccc(F)cc2)C(=O)C1=O (stereo not given) | 0%
NC(=O)c1nc(Nc2ccccc2)sc1NC(=O)c1ccccc1Br | 1%
Cc1nc(NC(=O)c2c(-c3ccccc3)c(-c3ccccc3)nn(C)c2=O)sc1C | -15%
O=S(=O)(NCc1nc2cccnc2n1Cc1ccc(F)cc1)c1ccc2c(c1)CCCC2 | 6%
Cc1cc2ccccc2n1CCNC(=O)c1ccc(F)cc1 | -1%
CCOc1ccc(NC(=O)CSc2cc(C)c3ccccc3n2)cc1 | 1%
Cc1ccc(NC(=O)c2ccc(COc3ccccc3Cl)o2)cc1 | -14%
O=c1n(Cc2ccc(F)cc2)nc2n1-c1cc(Cl)ccc1OC2 | -1%
CN(C)c1ccc(C(=O)Nc2ccc(-c3nc4ccccc4o3)cc2)cc1 | -23%
COc1ccc(OC)c(NC(=O)[C@H](Cc2ccccc2)N2Cc3ccccc3C2=O)c1 | 0%
CCOc1ccc(CCNC(=O)CCc2c(C)nc3c(c(C)nn3-c3ccc(C)c(C)c3)c2C)cc1 | 0%
CC1CCCCN1Cc1nc2c(c(=O)n(C)c(=O)n2C)n1Cc1ccc(Br)cc1 (stereo not given) | -3%
COc1ccc(-c2nc3sc(CCNC(=O)Cc4ccc(F)cc4)c(C)n3n2)cc1 | -10%

An excerpt from above in order of the miR-21 reporter value, falling:
SMILES | miR-21 reporter
CCOc1ccc(NC(=O)CSc2cc(C)c3ccccc3n2)cc1 | 1%
Cc1cc2ccccc2n1CCNC(=O)c1ccc(F)cc1 | -1%
CCN(CC)S(=O)(=O)c1ccc2c(c1)N(CC(=O)Nc1c(C)cc(C)cc1C)C(=O)C1CCCN21 (stereo not given) | -4%

Further structures follow.
molecule | miR-21 reporter
COc1ccccc1NC(=O)c1cc2ccc3cccnc3c2[nH]1 | -61%
CCOC(=O)c1c(C)oc2nc(C)nc(NCC3CCN(Cc4ccc(F)cc4)CC3)c12 | -2%
Cc1nc2nc(C)c(CCC(=O)NCc3cccc(Cl)c3)c(C)n2n1 | -3%
O=C(NC1CC(=O)N(c2ccc(Cl)cc2)C1)c1ccc(S(=O)(=O)N2CCOCC2)cc1 (stereo not given) | 12%
O=c1oc2c(CN3CCOCC3)c(O)ccc2cc1-c1ccc(Cl)cc1 | -29%
CCOC(=O)c1c(C)[nH]c(C)c1S(=O)(=O)N1CCC(C(=O)Nc2ccc(OCC)cc2)CC1 | -9%
CCc1cccc(NC(=O)Cn2c(=O)n(Cc3ccccc3)c(=O)c3c(C)c(C(=O)N(C)C)sc32)c1 | 15%
CC1(c2ccccc2)CC(C)(C)N(C(=O)c2ccccc2Cl)c2ccccc21 (stereo not given) | 0%
Cc1ccccc1NC(=O)Cn1c(=O)n(CCCCCC(=O)NCc2ccc3c(c2)OCO3)c(=O)c2sccc21 | -12%
COc1ccccc1N1CCN(C(=O)CCS(=O)(=O)c2cc(Br)cc3c2N(C(C)=O)CC3)CC1 | 8%
CCN1CCN(c2oc(-c3ccc(COc4ccc(C)cc4)o3)nc2C#N)CC1 | 3%
COc1ccc(NC(=O)Cn2c(=O)oc3cc(S(=O)(=O)N4CCC(C)CC4)ccc32)c(OC)c1 | ?
COc1ccc(C(=O)Nc2nnc(S(=O)(=O)N(C)c3ccc(C)cc3)s2)cc1 | -33%
CCN(CC)CCNC(=O)C1CCN(C(=O)c2cnn(-c3ccccc3)c2-n2cccc2)CC1 | -4%
CSc1ccc(CCNC(=O)c2cc3n(n2)CCCN(Cc2ccc(C)cc2)C3=O)cc1 | 4%
COc1ccc(Cl)cc1NC(=O)c1cc(-c2ccc3c(c2)OCO3)on1 | 0%
CCc1ccccc1N1CC(c2nc3ccccc3n2CCCCOc2ccccc2OC)CC1=O (stereo not given) | ?
CCN(CC)CCNC(=O)c1ccc2c(c1)NC(=O)C(CS(=O)(=O)Cc1cccc(Br)c1)N2 (stereo not given) | -3%
Cc1ccc(-c2nc3c4ccccc4n(CC(=O)N4CCN(c5ccc(F)cc5)CC4)c(=O)n3n2)cc1 | 2%
CCN1CCN(c2cc(C)c3cc(NC(=O)c4cc(OC)c(OC)c(OC)c4)ccc3n2)CC1 | 3%
Cc1ccccc1CNC(=O)Cn1c(=O)c2cccn2c2cccnc21 | -2%
Cc1ccc(NC(=O)c2oc3ccc(S(=O)(=O)N4CCCCC4)cc3c2C)cc1Cl | 0%
O=C1CN(C(=O)c2ccc(S(=O)(=O)N3CCCC3)cc2)C(c2ccccc2)c2cc(Cl)ccc2N1 (stereo not given) | 13%
O=C(CS(=O)(=O)c1cccc2nsnc12)Nc1cc(F)ccc1F | -8%
COc1ccc(/C=C/C(=O)Nc2ccc3nc(N4CCC(C)CC4)cc(C)c3c2)cc1OC | 15%

molecule | miR-21 reporter
Cc1cccc(Nc2nnc(-c3ccc(C)c(S(=O)(=O)N4CCCCC4)c3)c3ccccc23)c1 | -8%
COc1ccc2c(c1)c1c(c(=O)n(Cc3ccccc3)c(=O)n1CC(=O)Nc1cc(C)cc(C)c1)n2C | -1%
O=C(CCc1ccccc1)N(Cc1cccnc1)c1nc2c(F)cccc2s1 | -14%
CN(C)c1ccc(C(=O)NCc2ccc3c(c2)CCN3C(=O)c2ccccc2)cc1 | -20%
COc1cccc(CNC(=O)c2ccc3c(c2)nc2n3CCC(C)C2)c1 (stereo not given) | -49%
Cc1ccc2[nH]c(CSc3nnc(NC(=O)COc4ccccc4Cl)s3)cc(=O)c2c1 | -10%
CCCC(=O)OC1=C(C(C)=O)N(Cc2ccccc2)S(=O)(=O)c2ccccc21 | -9%
CCOC(=O)c1ccc2ncc(C(=O)OCC)c(NCCc3ccc(OC)c(OC)c3)c2c1 | 20%
CCc1ccc(CNC(=O)c2ccc(CSc3nc4ccncc4n3Cc3ccc(OC)cc3)cc2)cc1 | 19%
COc1ccc(CCNC(=O)Cn2c(=O)nc(-c3ccccc3)c3cc(Cl)ccc32)cc1OC | 2%
COc1cc(/C=C(\C#N)c2nc3ccccc3[nH]2)ccc1OCc1ccc(F)cc1 | -27%
COc1ccc(NC(=O)CSc2nc3ccccc3n2CC(=O)Nc2cccc(C)c2C)cc1 | 3%
COc1ccc(NC(=O)CN(C)S(=O)(=O)c2ccc3nc(C)sc3c2)cc1 | -10%
CN(C)S(=O)(=O)c1ccc(C(=O)NCCS(=O)(=O)N2CCN(c3ccccc3)CC2)cc1 | -1%
CCOC(=O)c1ccc(NC(=O)CCc2c(C)nc3c(c(C)nn3-c3ccccc3)c2C)cc1 | -1%
CCN1CCN(C(c2cccc(Cl)c2)c2c(O)cc(C)n(CCOC)c2=O)CC1 (stereo not given) | 5%
CCCCN(CC)C(=O)C1CCCN(c2ncnc3onc(C)c23)C1 (stereo not given) | 10%
Cc1ccc(S(=O)(=O)NCCc2nnc3ccc(SCc4ccccc4F)nn23)cc1 | -8%
CCc1ccc2oc(C(=O)Nc3nc(-c4ccc(F)cc4)ns3)c(C)c2c1 | 5%
O=C(c1cccc(Cl)c1)N1CCN(CCc2ccncc2)CC1 | -3%
Cc1cc(O)c(C(c2ccccc2)N2CCC(C)CC2)c(=O)n1Cc1ccco1 (stereo not given) | -3%
COc1ccc(Br)cc1CNC(=O)c1cc2n(n1)CCCN(Cc1ccc(C)cc1)C2=O | 1%
COc1cc2c(C(=O)Nc3cc(OC)c(OC)c(OC)c3)cn(C)c(=O)c2cc1OC | 6%
COC(=O)c1sc(N2C(=O)c3oc4ccccc4c(=O)c3C2c2ccc(O)cc2)nc1C (stereo not given) | 2%
Cc1ccc(-c2cnc(NCc3ccc(C(C)C)cc3)n2C)cc1 | 23%

Structures listed so far containing an NH in an aromatic ring, in the order listed:
molecule | miR-21 reporter
O=C(CSc1nc2c([nH]c3ccccc32)c(=O)n1-c1ccccc1)N1CCCCCC1 | -10%
COc1ccccc1NC(=O)c1cc2ccc3cccnc3c2[nH]1 | -61%
CCOC(=O)c1c(C)[nH]c(C)c1S(=O)(=O)N1CCC(C(=O)Nc2ccc(OCC)cc2)CC1 | -9%
Cc1ccc2[nH]c(CSc3nnc(NC(=O)COc4ccccc4Cl)s3)cc(=O)c2c1 | -10%
COc1cc(/C=C(\C#N)c2nc3ccccc3[nH]2)ccc1OCc1ccc(F)cc1 | -27%

Following part:
molecule | miR-21 reporter
Cc1ccc(-c2cc(C(F)(F)F)n3nc(-c4ccc(Cl)cc4)cc3n2)cc1 | -3%
CCc1nc2nc(C)c(NS(=O)(=O)c3ccc(F)c(C)c3)c(=O)n2[nH]1 | 1%
Cc1ccc(-n2nnc(-c3nc(-c4cccs4)no3)c2N)c(C)c1 | -7%
CCOC(=O)N1CCC(NC(=O)c2ccc3c(c2)N(Cc2ccc(F)cc2)C(=O)c2ccccc2S3(=O)=O)CC1 | 7%
O=C(COc1ccc(Cl)cc1)NCCc1csc(-c2ccc(C(F)(F)F)cc2)n1 | -2%
COc1ccc(-n2nc(C(=O)NCCc3ccc(OC)c(OC)c3)c3c4ccccc4n(C)c3c2=O)cc1Cl | -2%
Nc1nc(N)c(S(=O)(=O)c2ccccc2)c(Nc2ccc(Br)cc2)n1 | 18%
CCCn1c2ccccc2c2cnn(CC(=O)Nc3cccc(C(=O)OCC)c3)c(=O)c21 | -5%
CCN(CC)c1ccc(-n2nc3cc(C)c(NC(=O)c4ccccc4C)cc3n2)c(C)c1 | 9%
COC(=O)c1cc(-c2ccc(Cl)cc2)c2c(=O)[nH]c(=O)n(C)c2n1 | -24%
O=C(Nc1cc(NC(=O)c2ccccc2Cl)ccc1Cl)c1ccccc1 | -31%
Cc1cc(-c2ccc(C)c(S(=O)(=O)N3CCCC(C)C3)c2)on1 (stereo not given) | 13%
Cc1ccc(Cl)cc1N1CCN(C(=O)c2ccc(CS(=O)c3ccccc3)o2)CC1 (stereo not given) | 27%
CCn1cc(C(=O)NCCc2ccc(C)cc2)c(=O)c2cc(S(=O)(=O)N3CCCCC3)ccc21 | -4%
CCc1ccc(-n2c(=O)c3c(C)c(C(=O)N(C)C)sc3n(CC(=O)Nc3cc(Cl)ccc3C)c2=O)cc1 | -4%
CCOc1ccc(CCNC(=O)Cn2nc(CC)n3c(cc4sc(CC)cc43)c2=O)cc1OCC | -1%
Cc1ccc(C)c(N2CCN(C(=O)c3cc(S(=O)(=O)N4CCCC4)c[nH]3)CC2)c1 | 17%
Cc1ccc(S(=O)(=O)c2c(Nc3cccc(Cl)c3)sc(C(=O)c3ccc4c(c3)OCO4)c2N)cc1 | 23%
CCOc1cccc(CNC(=O)c2ccc(N3CCCC3)c(NC(=O)Nc3ccccc3CC)c2)c1 | -2%
CCc1c(C)c2ccc(O)c(CN3CCN(c4ccc(OC)cc4)CC3)c2oc1=O | -51%
CCOCCCNC(=O)C(c1ccc(C)cc1)N(Cc1ccc2c(c1)OCO2)C(=O)c1ccccc1O (stereo not given) | 20%
COc1ccc(Br)cc1CNC(=O)CN1C(=O)c2cccnc2Oc2ccc(C)cc21 | -16%
CCOc1ccc(CNC(=O)c2cnc3sc(N4CCCCCC4)nn3c2=O)cc1OC | -9%
CCN(Cc1ccccc1)S(=O)(=O)c1ccc2[nH]c3c(c2c1)CCCCC3 | 20%
Cc1c(NS(=O)(=O)c2ccc(C(C)(C)C)cc2)c(=O)n(-c2ccccc2)n1C | -16%

molecule | miR-21 reporter
COc1ccc(C(=O)NCc2nnc(SCC(=O)Nc3ccc(C)cc3)n2-c2ccccc2)cc1 | -1%
Cn1c(C(=O)NCc2ccccc2F)cc2cc(S(=O)(=O)N3CCCCC3)ccc21 | -5%
O=C(NCc1ccc(Cl)cc1)c1cnc(N2CCCCC2)c2ccccc12 | 5%
CCC(C)NC(=O)c1ccc2c(c1)N(Cc1cccc(Cl)c1)C(=O)c1ccccc1S2=O (stereo not given) | -10%
COc1cccc(N2CCN(S(=O)(=O)c3ccc(-c4ccno4)cc3OC)CC2)c1 | -6%
CCOC(=O)c1c(S(=O)(=O)N2CCCC(C(=O)Nc3ccc(OCC)cc3)C2)c(C)n(C)c1C (stereo not given) | 0%
COc1ccc(NC(=O)c2cc3c(s2)-c2c(C)cccc2OC3)c(OC)c1 | -12%
COc1cc(OC)c(NC(=O)c2nc(-c3ccncc3)no2)cc1Cl | -20%
CCC(Cc1ccccc1)NC(=O)Cn1ncc2c3ccccc3n(Cc3ccccc3)c2c1=O (stereo not given) | -2%
